Screening data deposited in PubChem by ICCB-Longwood Screening Facility, Harvard Medical School.
BmaI1 enzyme: BmaI1 acyl-homoserine lactone synthase inhibition – biochemical, fluorescence intensity, with counterscreen (AID 720554); inhibition, %; 12,000 tested, 0.4% active; BmaI1 enzyme assay, fluorescence intensity; hits give high values; test concentration not given here; a few actives read low; strong numbers were not always called active;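 active = both replicates within 2 robust z-scores of the inhibited control and a quiet counterscreen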;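 note: 0% = uninhibited enzyme and 100% = inhibited control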
BmaI1 enzyme counterscreen: further read-out of BmaI1 enzyme, marked with its call; inhibition, %; measured here: counterscreen; design of the counterscreen not given here;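 first of two replicates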
An asterisk follows results filed as active. Some of the compounds tested; rates above refer to the full screens.

SMILES	BmaI1 enzyme	BmaI1 enzyme counterscreen
Cc1sc2ncnc(N(C)Cc3ccco3)c2c1C	18	10
CC(C1CC1)N(CC(F)(F)F)C(=O)c1cc(S(=O)(=O)N(C)C)ccc1N1CCCC1 (stereo not drawn)	14	6
Cc1ccc(-n2nc(C)c(/C=N/NC(=O)Cc3nc4ccccc4n3C)c2Cl)cc1	9	4
COC(=O)c1ccc(CSc2nnc(-c3ccco3)n2C)o1	4	-4
COCCNC(=S)N1CCn2c1nc1ccccc12	18	2
O=c1cc(CN2CCCCC2)nc2sccn12	4	2
CC(=O)OCC[N+](C)(C)C	-6	1
COC(=O)CC1C(=O)NCCN1C(=O)CSc1nnnn1-c1ccc(Cl)cc1 (stereo not drawn)	13	14

Additional entries follow:
SMILES	BmaI1 enzyme	BmaI1 enzyme counterscreen
Cc1ccc(C)c(C(=O)COC(=O)c2c(-c3ccccc3)noc2C)c1	11	2
NC1=NC(=O)C(CC(=O)OCC(=O)Nc2cc(Cl)cc(Cl)c2)S1 (stereo not drawn)	16	8
CCN1CCN(S(=O)(=O)c2ccc(Cl)c(C(=O)NCc3nc4ccccc4[nH]3)c2)CC1	12	2
Cc1ccc(S(=O)(=O)N(C)c2nc3ccccc3n3c(-c4ccc(Br)o4)nnc23)cc1	6	2
CCN(CC(=O)NCc1cccs1)C(=O)C1=COCCO1	-14	-3
CC1CN(S(=O)(=O)c2ccc(C(=O)N3CCc4ccccc43)cc2)CC(C)O1 (stereo not drawn)	-2	-1
CCN(C(=O)C(C)Sc1nc(C)cs1)c1ccccc1 (stereo not drawn)	14	4
Cc1csc(-c2ccc(O)cc2)n1	28	47

Later entries.
SMILES	BmaI1 enzyme	BmaI1 enzyme counterscreen
CCN(CC)S(=O)(=O)c1ccc2c(c1)nc(SCC(=O)Nc1cccc(C)c1C)n2CC	20	-4
COCCn1c(SCc2csc(N(C(C)=O)c3ccccc3)n2)nc2ccccc21	11	-2
N#C/C(=C\C=C\c1ccccc1)C(=O)N1CCCC1	18	5
O=C(COc1ncnc2c(Cl)cc(Cl)cc12)NCCCN1CCCC1=O	10	-1
CNC(=S)N/N=C(\C)c1ccc(N2CCOCC2)cc1	-28	-23
CCN(CC)CCNCc1cc(C)n(-c2cc(C)on2)c1C	18	6
CCCn1c(SC(C)C(=O)C23CC4CC(CC(C4)C2)C3)n[nH]c1=O (stereo not drawn)	16	-4
COc1cc2c(cc1NC(=O)C(C)Sc1nc3ccccc3c(=O)[nH]1)oc1ccccc12 (stereo not drawn)	12	15

The results go on.
SMILES	BmaI1 enzyme	BmaI1 enzyme counterscreen
Cc1cccc(NC(=O)CNC(=O)COc2ccc3oc4ccccc4c3c2)c1C	4	-4
NC(=O)c1ccc(OCC(=O)N(c2ccccc2)C2CCS(=O)(=O)C2)cc1 (stereo not drawn)	21	9
Cc1c(O)c(=O)ccn1C	-1	-23
O=c1ccc(S(=O)(=O)N2CCCC2)c[nH]1	11	7
CC(OC(=O)c1ccc(S(=O)(=O)C(F)F)cc1)C(=O)N1CCOCC1 (stereo not drawn)	14	6
CCCn1c(=O)c2ccccc2n2c(SCCCc3ccccc3)nnc12	20	12
CC(C)(C)C1=CC(=O)C(N2CCOCC2)=CC1=O	12	-4
COC(=O)Cn1cnc2sc3c(c2c1=O)CCCC3	7	-6

Filtered by structure: the entries above containing a thiophene ring, fused or not
SMILES	BmaI1 enzyme	BmaI1 enzyme counterscreen
Cc1sc2ncnc(N(C)Cc3ccco3)c2c1C	18	10
CCN(CC(=O)NCc1cccs1)C(=O)C1=COCCO1	-14	-3
COC(=O)Cn1cnc2sc3c(c2c1=O)CCCC3	7	-6

The results go on:
SMILES	BmaI1 enzyme	BmaI1 enzyme counterscreen
O=C(CCc1nnc(SCC(=O)N2CCc3ccccc32)[nH]c1=O)OCC(=O)N1CCc2ccccc21	16	4
O=C(NC(Cc1ccccc1)C(=O)Nc1nnc(-c2ccco2)o1)OCc1ccccc1 (stereo not drawn)	17	-2
O=C(O)C(C(=O)/C=C/c1ccccc1)=C1SCS1	12	9
FC(F)Oc1ccc(N=C=S)cc1	38	22
COc1ccc(-c2nc(CN(C)Cc3cccs3)cs2)cc1OC	7	6
N#Cc1cccc(C(=O)Nc2ccccc2)c1	18	5
NC(=O)C1CCN(CC(O)COc2ccccc2F)CC1 (stereo not drawn)	-5	-8
N=C1/C(=C2\NC(c3ccc(Br)cc3)=CS2)CC(=O)N1C1CC1	18	4

Other records
SMILES	BmaI1 enzyme	BmaI1 enzyme counterscreen
CCn1c(=O)[nH]c(=O)c2cc(C(=O)c3cc(Cl)cc(Cl)c3O)cnc21	16	2
Cc1sc2ncnc(N3CCOCC3)c2c1-c1ccc(F)cc1	16	16
O=C(/C=C/c1ccc2c(c1)OCO2)N1CCN(S(=O)(=O)/C=C/c2ccccc2)CC1	2	3
O=S(=O)(Nc1ncnc2sccc12)c1cccc(F)c1	14	4
O=C(CCN1c2ccccc2Sc2ccccc21)OC1CCOC1=O (stereo not drawn)	30	-26
CCO/C=C1/C(=O)N(c2ccc(Cl)cn2)C(=O)c2ccccc21	21	10
C=C(C)CN1CC[C@]23c4c5ccc(O)c4O[C@H]2c2[nH]c4ccccc4c2C[C@@]3(O)C1C5	25	14
O=C(CCCSc1nnc(-c2cccs2)n1Cc1ccccc1)N1CCOCC1	8	6

Additional results follow:
SMILES	BmaI1 enzyme	BmaI1 enzyme counterscreen
COC(=O)c1ccc(/C=N/NC(=S)NCc2ccco2)cc1	20	4
Cc1[nH]n(-c2ccccc2)c(=O)c1C1=NCCCCC1	17	4
CN1CCCN(C(=O)c2ccc(F)c(S(=O)(=O)N3CCOCC3)c2)c2nc3ccccc3nc21	1	-4
CC1CCN(CC(=O)Nc2ccc3c(c2)OCO3)CC1	-2	0
CC(Sc1cccc[n+]1[O-])C(=O)NC1CCCCC1C (stereo not drawn)	20	4
O=c1[nH][nH]c(=S)n1CC1CCCO1 (stereo not drawn)	78	52
CCCCNc1nc2ccccc2n1Cc1ccc(C#N)cc1	8	-4
Cc1ccc(SCc2nnc(-c3c(-c4ccccc4)noc3C)o2)cc1C	13	8

Following part.
SMILES	BmaI1 enzyme	BmaI1 enzyme counterscreen
CCSC1=C(C#N)C(c2ccccc2Cl)C(C#N)=C(N)N1 (stereo not drawn)	34	-24
COC(=O)c1c(CC(C)C)csc1N	68	54
O=C(Cn1c(=O)cnc2ccccc21)N1CCN(c2ccccc2)CC1	14	5
CCN(CC)S(=O)(=O)c1ccc(N=Nc2c(C)[nH]n(-c3ccccc3)c2=O)cc1	18	16
O=C(COC(=O)c1ccc2c(=O)n3c(nc2c1)CCCCC3)c1ccc(F)cc1	8	0
COC(=O)c1ccc(CSc2nnc(COc3ccccc3Cl)n2C2CC2)o1	30	1
COc1ccc2c(c1)C1(NNc3ccccc3O1)C(=O)N2 (stereo not drawn)	97	37
CCOC(=O)c1oc2ccc(Br)cc2c1Cn1nc(C(=O)O)c2ccccc2c1=O	25	8

Further records follow.
SMILES	BmaI1 enzyme	BmaI1 enzyme counterscreen
CC(C)Oc1ccc(C(=O)NCC(=O)Nc2ccccc2N2CCOCC2)cc1	0	4
OCCN1CCN(CCCN2c3ccccc3Sc3ccc(C(F)(F)F)cc32)CC1	2	15
O=C(OCc1ccccc1Oc1ccccc1)c1ccccn1	28	8
COc1ccc(C(=O)NC(C(=O)Nc2ccc3c(c2)OCO3)C(C)C)cc1 (stereo not drawn)	-11	-6
O=S(=O)(Nc1ccc2c(c1)OCO2)c1ccccc1C(F)(F)F	6	1
COc1ccc(O)c(C(=O)c2cnn(C(=O)CN3CCCC3=O)c2)c1	-4	-2
CNCCCCOc1ccccc1Cc1ccccc1	-8	0
CCCCn1c(SCC(N)=O)nc2cc(S(N)(=O)=O)ccc21	12	6

(further entries)
SMILES	BmaI1 enzyme	BmaI1 enzyme counterscreen
COC(=O)c1ccc(CSc2nnc(SCC(=O)c3ccc(C)cc3C)s2)o1	39	6
CC1Sc2nnc(C(C)(C)C)n2N=C1c1ccc(Cl)cc1 (stereo not drawn)	7	11
O=C(CSc1nnc(CSc2nc3ccccc3s2)n1Cc1ccccc1)NC1CCS(=O)(=O)C1 (stereo not drawn)	20	4
Cc1[nH]c2ccccc2c1C(=O)CSc1nnc(C2CC2)n1C	2	4
CCC(C)Cc1c(C)sc2[nH]c(=S)[nH]c(=O)c12 (stereo not drawn)	66	78
CC(C)NC(=S)N/N=C/c1cn(-c2ccccc2)nc1-c1cccs1	8	16
O=C(COc1ccc(Br)cc1CO)NCC(F)(F)F	9	15
S=C1NC2Nc3ccccc3C2=NN1CC1CCCO1 (stereo not drawn)	-12	-24

Other structures follow:
SMILES	BmaI1 enzyme	BmaI1 enzyme counterscreen
CCOc1ncccc1C(=O)N(CC)CC(=O)NCc1ccc(Cl)cc1	0	-2
CC1CN(CC(O)COCc2ccc(Cl)cc2)CCN1CC(O)COCc1ccc(Cl)cc1 (stereo not drawn)	-2	0
O=C(COC(=O)C1(c2ccc(F)cc2)CCCC1)N1CCN(C(=O)c2ccco2)CC1	4	0
O=C(COC(=O)c1ccc(O)cc1)Nc1nccs1	2	8
COc1cc2nc(N(C)CCCNC(=O)C3CCCO3)nc(N)c2cc1OC (stereo not drawn)	-2	3
Cc1ccc(NC(=O)C(C)OC(=O)C2CCN(c3ccc(C(F)(F)F)cn3)CC2)cc1 (stereo not drawn)	8	2
COc1ccc2c(c1)c(C(=O)Nc1nccs1)c(C)n2C1CCCCC1	0	6
Cc1c(C(=O)N=c2sc3ccccc3n2C)sc2nc3n(c(=O)c12)CCC3	6	4

New compounds follow.
SMILES	BmaI1 enzyme	BmaI1 enzyme counterscreen
O=C(CCC1CCCC1)OCc1nnc(-c2ccccc2Br)o1	20	8
Cc1c(C(=O)OCC(=O)Nc2ccc(C#N)cc2)oc2ccccc12	14	9
CC(C)(C)P(=NC(=O)C(F)(F)F)(N1CCCCC1)N1CCCCC1	6	3
Cc1cccc(OCc2nnc(SCC(=O)c3ccc4c(c3)NC(=O)CO4)o2)c1	23	1
O=C(/C=C/c1cc(Br)ccc1F)OCC(=O)N1CCOCC1	13	5
Cc1ccc(NC(=O)CN(C)C(=O)COc2cccc3cccnc23)cc1	-12	-34
CCNc1nc(-c2cccc(C(F)(F)F)c2)cs1	2	6
COc1ccccc1CNc1nc(-c2cc(C)n(C)c2C)cs1	38	17

Other entries:
SMILES	BmaI1 enzyme	BmaI1 enzyme counterscreen
CCn1c(COC(=O)/C=C/c2nc3ccccc3s2)nc2cc(S(=O)(=O)N(C)C)ccc21	30	8
FC(F)Oc1ccc(Cl)cc1COc1ncnc2ccccc12	10	-2
CC(NC(=O)COn1nnc2ccccc21)C1CC2CCC1C2 (stereo not drawn)	21	10
O=C(Oc1ccccc1)C1CCCN(C2=NS(=O)(=O)c3ccccc32)C1 (stereo not drawn)	10	-2
O=P1(NCc2ccco2)C=C(c2ccccc2)SC(c2ccccc2)=C1	10	5
C=C1c2ccccc2N=C(SCC(=O)Nc2ccc(OC(F)F)cc2)N1C	21	8
COc1cc2c(cc1OC)CN(C(=O)/C=C/c1ccc(F)cc1)CC2	19	24
Nc1nc(N)c2[nH]c(C3CCCCC3)nc2n1	57	28

Following part
SMILES	BmaI1 enzyme	BmaI1 enzyme counterscreen
CCn1c(=O)c(C(=O)CSc2nnc(NC3CC3)s2)c(N)n(Cc2ccccc2)c1=O	5	1
CCc1ccc2nc(NC(=O)CCn3[nH]c(=O)ccc3=O)sc2c1	22	8
CCOC(=O)Cc1sc(NC(C)=O)nc1-c1ccccc1	8	4
Cc1nc(Cc2nnc(SCC(=O)N3c4ccccc4NC(=O)C3(C)C)o2)cs1	25	8
COC(=O)c1c(NC(=O)CN2CCN(c3ccccc3O)CC2)sc2c1CCC2	27	6
CC(=O)Nc1ccc(NC(=O)C(C)OC(=O)c2cc(C)oc2C)cc1 (stereo not drawn)	10	6
Cc1c(-c2ccc(C#N)cc2)oc2ccccc2c1=O	14	12
NNC(=O)c1cccc(S(=O)(=O)Nc2cccc(C(F)(F)F)c2)c1	18	0

(more compounds)
SMILES	BmaI1 enzyme	BmaI1 enzyme counterscreen
CCN1CCN(c2ccc(N)cc2C)CC1	86	29
CC(C(=O)Nc1ccc2c(c1)OCO2)N1CCN(S(=O)(=O)/C=C/c2ccccc2)CC1 (stereo not drawn)	12	12
COc1ccc(-c2nnc(SCC(=O)N[C@H](c3nc4ccccc4[nH]3)C(C)C)o2)cc1	19	9
CCc1ccccc1NC(=O)C1CC2C=CC1C2 (stereo not drawn)	15	16
Cc1ccc(SCC(=O)NCCN2C(=O)CSC2=O)c(C)c1	14	2
CCOc1cccc(/C=N/NC(=O)c2cccc(S(=O)(=O)N(CC)CC)c2)c1O	21	-2
CCOc1ccccc1NC(=O)CNC(C)c1ccccc1OC (stereo not drawn)	-6	4
COc1ccc(OC)c(COC(=O)Cc2coc3cc(OC)ccc23)c1	4	4

Full records, quoted from the list. Order of screens: BmaI1 enzyme | BmaI1 enzyme counterscreen
Listed for `Cc1ccc(SCC(=O)NCCN2C(=O)CSC2=O)c(C)c1` : 14 | 2
Listed for `CCN1CCN(c2ccc(N)cc2C)CC1` : 86 | 29
Listed for `CCc1ccccc1NC(=O)C1CC2C=CC1C2` (stereo not drawn) : 15 | 16

Carrying on.
SMILES	BmaI1 enzyme	BmaI1 enzyme counterscreen
CCn1c(=S)[nH]c2cc(C(=O)O)ccc2c1=O	-16	6
Cc1cccc(C)c1NC(=O)C(C)N (stereo not drawn)	1	9
Fc1cccc(Cl)c1CN1CCNCC1	4	7
O=C(Nc1cccc(-n2cnnn2)c1)C1CC(=O)N(c2ccc3c(c2)OCCO3)C1 (stereo not drawn)	26	7
N#CCOc1ccc(C(=O)NC2CCN(Cc3ccccc3)CC2)cc1	-4	-6
CCCN(Cc1nnc(-c2ccco2)o1)C(=O)c1cccnc1SCc1c(C)noc1C	4	0
COc1ccc(N2CCN(C(=O)CCNC(C)=O)CC2)cc1	-13	-34
CN(C)CC[C@@H](c1ccc(Cl)cc1)c1ccccn1	54	10
CC(=O)N1CCN(C(=S)NC(=O)c2ccc(F)cc2)CC1	6	4
CCOC(=O)/C=C1\SCC(=O)N1CCOC(=O)c1cncc(Br)c1	-13	-12
